Arbovirus inh: blocks arbovirus infection | inhibition, % at 10 µM | AID 1251 | 200,000 tested, 0.37% active | arbovirus infection cell-based antiviral screen;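 active = inhibition from about 30%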;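 also: bluetongue infection of BSR cells; cell survival read as ATP light after 72 h; 0% = infected wells without compound and 100% = uninfected wells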
RecA intein inh: inhibitors of M. tuberculosis RecA intein splicing | cell-free RecA intein splicing, fluorescence | inhibition, %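 (about 9 µM by stock and volumes)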 | P9WHJ3 | 290,000 tested, 0.75% active | AID 2221; in the data active = inhibition above about 30%; inconclusive = no clear call, values can overlap the other calls;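 also: 0% = vehicle wells and 100% = reference inhibitor control wells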
Target sequence (P9WHJ3 whole entry, looked up): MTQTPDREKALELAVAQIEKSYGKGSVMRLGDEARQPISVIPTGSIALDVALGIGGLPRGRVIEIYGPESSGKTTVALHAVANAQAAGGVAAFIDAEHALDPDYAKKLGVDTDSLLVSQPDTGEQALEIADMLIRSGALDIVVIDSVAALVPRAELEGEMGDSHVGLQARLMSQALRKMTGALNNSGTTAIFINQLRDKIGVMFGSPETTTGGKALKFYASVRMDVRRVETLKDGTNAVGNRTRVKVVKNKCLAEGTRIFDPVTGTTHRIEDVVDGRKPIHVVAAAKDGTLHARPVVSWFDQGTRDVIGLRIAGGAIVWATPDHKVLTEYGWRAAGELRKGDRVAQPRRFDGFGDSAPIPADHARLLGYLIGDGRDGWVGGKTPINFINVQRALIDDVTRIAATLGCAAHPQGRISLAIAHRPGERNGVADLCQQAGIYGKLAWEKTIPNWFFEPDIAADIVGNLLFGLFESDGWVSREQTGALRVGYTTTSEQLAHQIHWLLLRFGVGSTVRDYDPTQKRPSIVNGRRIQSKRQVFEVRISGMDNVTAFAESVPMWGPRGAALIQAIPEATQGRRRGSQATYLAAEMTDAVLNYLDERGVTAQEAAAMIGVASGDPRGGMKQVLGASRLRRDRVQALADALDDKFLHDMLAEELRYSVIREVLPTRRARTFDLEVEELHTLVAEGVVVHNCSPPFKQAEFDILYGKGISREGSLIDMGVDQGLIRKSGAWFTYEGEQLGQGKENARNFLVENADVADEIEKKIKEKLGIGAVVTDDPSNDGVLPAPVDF
Mtb betalactam: beta-lactam sensitization of Mtb H37Rv | M. tuberculosis H37Rv growth with meropenem, percent inhibition; hits of this screen are not shown here | inhibition, % at 25 µM | 330,000 tested, 0.27% active;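 active = about 74% or more and at least 40 points above the plate without the antibiotic, then above 30% in a dose series; inconclusive = first-round hits that could not be retested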;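 also: growth measured after seven days incubation then overnight dye step; 0% = bacteria only wells and 100% = bacteria with antibiotic; twin plates without the antibiotic show which effects depend on it; some results filed as inactive read as strong as hits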
Mtb H37Rv: M. tuberculosis H37Rv growth inhibitors, H37Rv strain (AID 1626) | 220,000 tested, 0.95% active | M. tuberculosis H37Rv growth inhibition; higher % means a stronger effect | inhibition, % at 10 µM, or IC50 in µM where a hit was titrated;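 active = confirmed in a dose series; inconclusive = inhibition above 80% but not taken into the dose series; inactive = below 80% or under 30% at every dose of the series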;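 also: bacteria incubated seven days before Alamar blue readout; 0% = bacteria only wells and 100% = bacteria with antibiotic wells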
YopH PTP inh: YopH (Yersinia) phosphatase inhibition | 140,000 tested, 0.16% active | AID 898 | fluorescence Ex485/Em525 | inhibition, %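 (about 10 µM by stock and volumes)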;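 active = inhibition of 50% or more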;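 also: controls were vehicle for no effect and minimum signal wells for full effect; inactives centre near -20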
Arbovirus inh repeat: also measured in Arbovirus inh; calls as there; inhibition, %; measured here: 10K subset replicate screen; many hits read low in the repeat;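 first of two repeat runs on a subset; 0% = infected and 100% = uninfected wells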
Active calls of the source: *; ? = inconclusive; / = not tested or not shown. This is a subset; count on the stated rates, not on these rows.

SMILES	Arbovirus inh	RecA intein inh	Mtb betalactam	Mtb H37Rv	YopH PTP inh	others
CCOc1ccc(CN2C(=O)c3ccccc3C2C(=O)NC(C)CC)cc1OC (stereo not given)	/	0.5	1.5	/	/
CCOC(=O)c1sc(=NC(=O)c2ccc(C)c(C)c2)n(C)c1C	1.3	-5.0	3.0	4.4%	/
Cc1ccc(N/C=C/C(=O)c2cccs2)cc1C	-2.9	1.7	0.1	82.7%	/
CCOC(=O)CN1C(=O)S/C(=C/c2cccc([N+](=O)[O-])c2O)C1=O	16.5	0.2	-8.1	-7.1%	/
O=C1CN(C(=O)c2ccc(Cl)c(S(=O)(=O)N3CCc4ccccc43)c2)c2ccccc2N1	/	7.8	-4.5	1.2%	/
CCOCCSc1nc2c(c(=O)[nH]c(=O)n2C)n1CCCc1ccccc1	-4.4	-0.7	-18.4	10.1%	-43.6
CCC(C)c1ccc(NC(=O)C2CCN(c3ncccn3)CC2)cc1 (stereo not given)	-20.5	1.8	-2.7	-7.5%	4.8
CCC(CC)NC(=O)CON=C1c2ccccc2-c2ccccc21	-6.5	-0.5	/	3.0%	-34.0
Cn1c(=O)c2c(nc(NN=C3CCCCC3)n2C)n(C)c1=O	4.8	-2.1	-0.1	-0.4%	/
CC(C)Sc1nc2sccc2c(=O)n1-c1ccccc1	/	6.7	4.2	/	/
O=C(O)/C=C/C(=O)N1Cc2cc3ccccc3nc2C1	/	-3.4	0.3	-7.6%	/
CC(=O)c1ccc(NC(=O)CCn2c(=S)oc3ccccc32)cc1	/	-2.8	5.4	/	/
Nc1nc(CSc2ccc(Cl)cc2)nc(N2CCCCC2)n1	2.1	3.4	15.2	8.1%	/
Cc1ccc(NC(=O)c2ccccc2OCC(=O)c2ccc(F)cc2)cc1	-4.8	-1.8	0.1	11.3%	-29.4
CCOC(=O)N1CCC(=NNC(=O)c2ccccc2F)CC1	0.8	/	67.9	-5.2%	-5.4
Cc1onc(-c2ccccc2)c1C(=O)Nc1ccc(S(=O)(=O)N2CCCC2)cc1	-6.2	4.9	0.8	7.0%	/
CCOc1cc(S(=O)(=O)N(CC)CC)ccc1Br	7.1	-8.3	-10.9	1.5%	6.3
CCCOc1ccc(N2C(=O)CC(N(Cc3ccc(S(N)(=O)=O)cc3)C(=O)CC)C2=O)cc1 (stereo not given)	3.3	-2.0	-23.1	-4.8%	-17.0
O=C(N/N=C(\CC(=O)c1cccs1)C(F)(F)F)c1cccnc1	/	-0.2	-2.9	15.2%	/
CCN(C(=O)CN1C(=O)NC2(CCc3ccccc32)C1=O)C1CCCCC1 (stereo not given)	/	-2.0	5.7	/	/
CNC(=O)c1ccccc1S(=O)c1ccccc1C#N (stereo not given)	-4.0	/	-0.3	6.5%	-19.7
COc1ccc(C(=O)NCc2ccc(-c3nc4ccccc4s3)cc2)cc1	-9.7	-1.4	50.4	-0.7%	-32.4
COCCOC(=O)c1[nH]c2c(c1C)C(=O)CC(c1ccco1)C2 (stereo not given)	9.0	0.7	3.4	-4.0%	-15.9	Arbovirus inh repeat=-3.2
Cc1oc(-c2cccc(Cl)c2)nc1CN1CCCC(C(=O)NCCCN2CCOCC2)C1 (stereo not given)	-4.0	-0.3	-20.8	/	-42.5
CCN(Cc1nc2cc(OC)c(OC)cc2c(=O)[nH]1)C(=O)c1ccc(S(=O)(=O)N(C)C)cc1	-5.1	-2.7	-5.7	8.1%	-16.9

(more compounds)
SMILES	Arbovirus inh	RecA intein inh	Mtb betalactam	Mtb H37Rv	YopH PTP inh	others
Cc1ccccc1CS(=O)(=O)c1cnc2ccccc2n1	-3.4	16.5	45.3	10.5%	-48.9
NC(=O)c1ccsc1NC(=O)c1ccc(N2CCCC2=O)cc1	4.5	0.2	-2.9	-0.6%	/
Cc1cccc(N2CCN(CCc3ccccc3)CC2)c1C	4.1	2.5	/	/	-36.2
CCCCC(=O)Nc1ccc(NC(=O)CCCC)nc1	2.4	/	-0.7	19.8%	-11.2
O=C1CSC(=S)N1c1cccnc1	3.0	-5.0	5.3	8.8%	-31.3
CCc1ccc(Oc2nnnn2-c2ccc(C(N)=O)cc2)cc1	2.5	-1.4	-0.7	2.5%	/
O=C(CCNC(=O)c1ccc([N+](=O)[O-])cc1)Nc1ccc(F)c(F)c1F	/	0.8	-3.4	/	/
C/C(CC(=O)Nc1ccc(Cl)c(Cl)c1)=N\NC(N)=S	-24.4	-0.1	99.2	59.6%	-7.2
COc1ccccc1-c1n[nH]c(=S)n1N	13.3	-1.1	-3.4	-1.4%	/
Cc1nc2cc(NC(=O)NCCC3=CCCCC3)ccc2o1	-5.8	-2.0	-1.4	-2.8%	-1.5
O=c1c2ccccc2nc(-c2ccccc2F)n1-c1ccccc1	/	1.4	-7.8	/	/
COc1ccc(OC)c(C(=O)NC(CC(N)=O)c2ccc(NCCN3CCOCC3)c([N+](=O)[O-])c2)c1 (stereo not given)	/	0.3	-3.2	-9.6%	/
O=C(OCc1cc(=O)n2cc(Br)ccc2n1)C1COc2ccccc2O1 (stereo not given)	1.8	2.1	-7.0	-1.1%	-37.4
O=C(CSc1nnc(NC(=O)c2ccco2)s1)Nc1ccc(F)cc1	3.7	-1.3	-1.7	-6.9%	/
O=C(N/N=C/c1cccc2ccccc12)c1ccc(CN2CCOCC2)cc1	/	-1.1	5.7	/	/
O=C(NCc1ccco1)C1CCN(C(=O)Cc2ccccc2)CC1	-2.6	-0.6	-16.3	-7.9%	19.1	Arbovirus inh repeat=10.6
CC(C)(C)c1ccc(C(=O)NNC(=S)NC(=O)c2cccnc2)cc1	/	15.5	93.7	/	/
Cc1ccc(CNC(=O)CN2CCC(C(N)=O)CC2)cc1	0.1	1.7	-12.8	-6.9%	-33.9
COc1ccc(/C=N/Nc2ccc(C(F)(F)F)cc2[N+](=O)[O-])cc1O	1.3	-0.1	-2.2	3.3%	-21.0
COC(=O)C1=C(C)N(C)C(=S)NC1c1c(OC)ccc2ccccc12 (stereo not given)	10.4	1.1	6.6	5.4%	/
CCN1/C(=C/c2cccc[n+]2C)Sc2ccc(OC)cc21	/	1.3	-8.3	/	/
O=C(Nc1cccc(F)c1)/C(=C/c1ccco1)NC(=O)c1ccco1	/	0.0	-7.2	/	/
C/C(Cc1ccccc1)=N\NC(=O)CNC(=O)c1ccc(Cl)cc1Cl	/	1.0	2.0	3.6%	/
COc1ccc(C(=O)NCCCNC(=O)c2cc3ccccc3[nH]2)cc1OC	/	-0.4	1.7	/	/
Nc1nncn1C(=O)c1cccs1	9.4	/	-3.0	-4.8%	-47.7

Next entries follow:
SMILES	Arbovirus inh	RecA intein inh	Mtb betalactam	Mtb H37Rv	YopH PTP inh	others
O=C(O)C[C@H]1c2cc(C(F)(F)F)ccc2S(=O)(=O)N1Cc1ccccc1	/	-1.5	-7.8	0.3%	/
COc1ccccc1N1CCN(C(CNS(=O)(=O)c2cccs2)c2cccnc2)CC1 (stereo not given)	2.1	0.2	13.0	4.2%	-23.3	Arbovirus inh repeat=-0.3
CCOC(=O)c1ccc(Nc2ccc([N+](=O)[O-])cn2)cc1	1.7	-1.8	3.9	8.6%	-17.6
O=C(COc1ccccc1)N=C1SC2CS(=O)(=O)CC2N1CCc1ccccc1 (stereo not given)	/	-2.6	4.4	/	/
CC1=C(C)CC(C(=O)NCc2ccccn2)C(C(=O)O)C1 (stereo not given)	/	0.7	-7.0	-9.5%	/
CC12CCC(C(=O)N(CCCN3CCN(Cc4ccccc4)CC3)C1=O)C2(C)C (stereo not given)	-21.8	0.7	0.4	-2.5%	/
CCOC(=O)CSc1nc2ccc(Nc3nc(N4CCOCC4)nc(N4CCOCC4)n3)cc2s1	1.0	-3.1	?	69.2%	-32.7
CCCCC(=O)NCCNc1nc2c(c(=O)n(C)c(=O)n2C)n1Cc1ccccc1	-5.7	0.4	-1.5	-11.7%	7.7
O=C(O)c1[nH]c2ccccc2c1NS(=O)(=O)c1ccc(F)cc1	/	-1.4	-7.2	/	/
COc1cc(C(=O)Nc2nnc(C)s2)cc(OC)c1OC	2.0	-5.7	-4.6	-1.9%	-24.8	Arbovirus inh repeat=1.8
Cc1cc(NC(=O)CCC(=O)N(c2ccccc2)C(C(=O)NC2CCCC2)c2ccccc2F)no1 (stereo not given)	/	2.5	1.1	/	/
NNc1nnnc2c1sc1nc(N3CCOCC3)c3c(c12)CCCC3	/	8.1	2.5	-3.1%	/
COc1ccc(N2CCCCn3c2nc2c3c(=O)n(C)c(=O)n2C)cc1	-1.2	-0.8	6.3	-1.8%	-34.1
O=C(NCCO)/C(=C\c1ccc([N+](=O)[O-])o1)NC(=O)c1ccccc1	-8.1	-9.2	69.1	-3.1%	/
CCOC(=O)C(C)N1N=C(/C=C/c2ccc(C)cc2)CCC1=O (stereo not given)	7.5	6.8	-14.5	-7.2%	-30.3
CSc1cc(C)nc(N(C)C(C)=O)n1	2.9	0.6	-12.3	1.1%	-49.2
CC(C)Oc1ccc(C(=O)NC2CCS(=O)(=O)C2)cc1 (stereo not given)	-4.0	-1.8	-11.9	-2.4%	15.6
CN(C)c1cccc(C(=O)NCc2ccc3c(c2)OCO3)c1	/	-1.2	0.5	/	/
CC12COC3(C(=O)Nc4ccc(F)cc4)CC1CCC32C (stereo not given)	4.0	0.8	-5.5	-7.7%	-22.2
Cc1ccc(NC(=O)c2ccc(CN3CC(=O)N4CCCCC4C3=O)cc2)c(C)c1 (stereo not given)	/	3.1	26.5	/	/
COc1ccc(OC)c(-c2nc(C(=O)NCC3CCCO3)cc3c2[nH]c2ccccc23)c1 (stereo not given)	/	4.1	1.2	/	/
COCCNC(=S)N1CCc2cc(OC)c(OC)cc2C1COc1ccc(F)cc1 (stereo not given)	-2.6	-1.2	4.3	-6.5%	/
O=C(NC1(O)C(=O)c2ccccc2C1=O)c1ccc(C(F)(F)F)cc1	/	7.1	4.2	-5.7%	/
CCN(c1ccccc1)S(=O)(=O)c1ccc(Cl)c(C(=O)OCC(=O)c2[nH]c(C)c(C(C)=O)c2C)c1	4.0	5.2	1.1	-5.7%	-5.5
CC(C)C(NC(=O)c1ccc(Cl)cc1)C(=O)O (stereo not given)	0.3	-0.7	-5.6	-3.9%	-18.6

Random excerpt: 3 compounds from above, in no set order.
SMILES	Arbovirus inh	RecA intein inh	Mtb betalactam	Mtb H37Rv	YopH PTP inh	others
CN(C)c1cccc(C(=O)NCc2ccc3c(c2)OCO3)c1	/	-1.2	0.5	/	/
CC12COC3(C(=O)Nc4ccc(F)cc4)CC1CCC32C (stereo not given)	4.0	0.8	-5.5	-7.7%	-22.2
CSc1cc(C)nc(N(C)C(C)=O)n1	2.9	0.6	-12.3	1.1%	-49.2

The main list resumes with the 5 entries that preceded the break.
SMILES	Arbovirus inh	RecA intein inh	Mtb betalactam	Mtb H37Rv	YopH PTP inh	others
COc1ccc(OC)c(-c2nc(C(=O)NCC3CCCO3)cc3c2[nH]c2ccccc23)c1 (stereo not given)	/	4.1	1.2	/	/
COCCNC(=S)N1CCc2cc(OC)c(OC)cc2C1COc1ccc(F)cc1 (stereo not given)	-2.6	-1.2	4.3	-6.5%	/
O=C(NC1(O)C(=O)c2ccccc2C1=O)c1ccc(C(F)(F)F)cc1	/	7.1	4.2	-5.7%	/
CCN(c1ccccc1)S(=O)(=O)c1ccc(Cl)c(C(=O)OCC(=O)c2[nH]c(C)c(C(C)=O)c2C)c1	4.0	5.2	1.1	-5.7%	-5.5
CC(C)C(NC(=O)c1ccc(Cl)cc1)C(=O)O (stereo not given)	0.3	-0.7	-5.6	-3.9%	-18.6
O=C(Cn1nc(-c2ccc(Cl)cc2)c2ccccc2c1=O)NN1CCOCC1	/	0.8	36.1	3.5%	/
CC/C(=N\NC(=O)c1c(-c2ccccc2)noc1C)c1ccc(C)o1	8.7	-1.0	0.3	-1.7%	-5.1
COc1ccc(CCNC(=O)CCCn2ncn3c(cc4occc43)c2=O)c(OC)c1	/	1.5	-5.9	/	/
Cn1cnnc1SCCC(=O)Nc1ccc(Cl)cc1	-1.2	-2.4	-16.6	-2.8%	-23.3
COc1ccc(CNC(=O)C(C)N2C(=O)COc3ccc(C)cc32)c(OC)c1 (stereo not given)	/	1.5	-11.4	-10.3%	/
O=C(c1ccccc1)N1CCN(Cc2cccc(Oc3ccccc3)c2)CC1	9.4	8.7	-4.8	1.7%	-25.4
O=C(CCC1CCCC1)N1CCN(C(=O)C2CC2)CC1	-7.2	-1.8	-9.3	-0.2%	1.6
CC(C)(C)NC(=S)Nc1ccc(Br)cc1	14.6	-0.6	-3.8	-1.5%	-34.9
O=C1[C@H]2CCCC[C@H]2C(=O)N1CCCCN1CCN(c2nsc3ccccc23)CC1	/	-4.6	-4.0	-6.5%	/
CCOc1ccc(-c2c(C(=O)N/N=C/c3ccncc3)nnn2-c2nonc2N)cc1	/	0.3	3.3	/	/
COC(=O)CNC(=O)C(C)NC(=O)CNC(=O)OCc1ccccc1 (stereo not given)	12.8	-0.5	5.0	8.4%	-22.9
Nc1nnc(Cc2ccc(Cl)cc2Cl)s1	1.3	/	-7.5	-8.7%	-29.2

Assay outcomes: PubChem, several laboratories
